Rango complex inh: qHTS Assay for Inhibitors of Rango (Ran-regulated importin-beta cargo) - Importin beta complex formation | Potency, µM (top dose mostly 92.2 µM), for inactives: top-dose inhibition of complex formation | 340,000 compounds, 0.031% hits | Rango CFP/YFP FRET sensor + importin beta, 45 min | Importin subunit beta-1 (Homo sapiens), Q14974; active = rising FRET ratio curve, often small or poorly fitted; inconclusive = mostly compound fluorescence or quenching in the first reads; inactive = flat curves in all reads;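 also: potency is read from the fitted curve at half-maximal effect; 0% = DMSO wells and 100% = buffer wells lacking importin beta; nearly all actives have a fitted effect of over 15% in size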
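Inhibition scored from the CFP 486 nm/YFP 530 nm FRET ratio 45 min after adding 0.125 microM importin beta to 50 nM Rango biosensor preincubated 5 min with compound (room temperature, PBS with DTT, Tween-20, BSA). No-importin wells as positive control.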
Rango dissoc inh: qHTS Assay for Inhibitors of RanGTP induced Rango (Ran-regulated importin-beta cargo) - Importin beta complex dissociation; AID 540253, 2011; 340,000 compounds, 0.071% hits; Biochemical FRET Rango-importin beta, RanGTP-induced dissociation; Snurportin-1 (Homo sapiens) + GTP-binding nuclear protein Ran (Homo sapiens) + Importin …; Potency, µM (series often up to 46.1 µM), inactives show at the highest dose activity change, negative = inhibition; active means falling FRET ratio curve, often poorly fitted, with flat reads before Ran was added; inconclusive means other falling curves, or compound fluorescence or quenching; inactive means flat or rising ratio curve;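 also: potency is read from the fitted curve at half-maximal effect; % of control where 0% means no effect; nearly all actives have a fitted effect of over 45% in size; -100% = wells without RanGTP and RCC1; the record marks most hits as doubtful in a second field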
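Quantitative HTS using a FRET biosensor: 0.1 uM Rango, 0.25 uM importin beta, 0.6 uM Ran, 2 mM GTP, 0.2 uM RCC1 final, PBS with DTT, Tween-20 and BSA. Post-read taken 45 min after Ran addition.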
miR-21 reporter: qHTS Assay for Modulators of miRNAs and/orActivators of miR-21 | HeLa miR-21 FLuc reporter, luciferase, 48 h | Potency, µM (highest dose often 38.3 µM), without a hit: top-dose reporter change, positive = more light | 340,000 tested, under 10 active | AID 2288, 2010; active = well fitted rising curve with a large enough effect; inconclusive = small, poorly fitted or top-dose-only effect; inactive = no such curve, though single readings can be large or run the other way;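 also: % of control where 0% means no effect; miR-21 action dims this reporter so a rising signal means less miR-21 action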
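Using DMEM plus 10% FBS, HeLa miR-21-FLuc cells are incubated with test compounds (final up to about 40uM) for 48 hours; firefly luciferase signal is then imaged following reagent-mediated lysis.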
GLA inh pH 4.5: qHTS Assay for Inhibitors of Human alpha-Galactosidase at pH 4.5 | Alpha-galactosidase A (Homo sapiens), P06280 | purified enzyme, 4-MU-alpha-Gal fluorescence, pH 4.5 | activity change, negative = inhibition, % at 105 µM | 230,000 tested, under 10 active; inconclusive = small, poorly fitted or top-dose-only inhibition, or a rising curve; inactive = flat fitted curve, though single readings scatter; no compound was filed as active;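 also: 0% = full activity with enzyme and -100% = basal without enzyme; dose as in the result columns while the protocol names 77 µM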
Target sequence (P06280 whole entry, looked up): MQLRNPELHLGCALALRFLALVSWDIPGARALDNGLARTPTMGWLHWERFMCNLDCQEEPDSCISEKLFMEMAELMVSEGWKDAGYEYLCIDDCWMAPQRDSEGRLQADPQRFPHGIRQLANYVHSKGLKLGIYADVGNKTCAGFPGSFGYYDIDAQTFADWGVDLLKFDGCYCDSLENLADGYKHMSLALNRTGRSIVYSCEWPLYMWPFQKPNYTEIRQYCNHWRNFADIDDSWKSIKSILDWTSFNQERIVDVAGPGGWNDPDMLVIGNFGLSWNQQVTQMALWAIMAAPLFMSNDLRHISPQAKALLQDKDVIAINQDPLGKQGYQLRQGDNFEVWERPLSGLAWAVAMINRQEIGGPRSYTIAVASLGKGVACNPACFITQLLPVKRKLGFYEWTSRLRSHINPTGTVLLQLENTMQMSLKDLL
Active calls of the source: *; ? = inconclusive; . = not tested or not shown; & = joins results of further samples. This is a subset. The share of hits here may be higher or lower than overall.

Rango complex inh	Rango dissoc inh	miR-21 reporter	GLA inh pH 4.5	Molecule
8.3%	-4%	-1%	1	CCn1c(CSc2nnc(-c3ccncc3)n2CCOC)nc2cc(C(=O)O)ccc21
-3.5%	15%	.	.	O=C(CCNS(=O)(=O)c1ccccc1Cl)N1CCN(c2ccccn2)CC1
?	?	18%	-1	Cc1nnc(-c2ccccc2)c(=O)n1/N=C/c1c(O)ccc2ccccc12
-1.1%	-2%	-40%	.	COc1ccc(-c2nc3c(s2)CN(S(C)(=O)=O)CC3)cc1OC
0.3%	4%	.	.	COc1ccc2oc(C(=O)OCC(=O)N3CCCC(C)C3)c(C)c2c1 (stereo not given)
5.5%	-15%	-9%	-3	CC(=O)O/N=C(/c1nonc1N)N1CCN(c2ccc([N+](=O)[O-])cc2Cl)CC1
0.3%	-5%	-15%	-14	Cc1n[nH]c(=O)nc1N/N=C/c1ccco1
0.3%	7%	-3%	.	Cc1cc(OCC(=O)NCC(O)c2ccccc2)c2c(C)cc(=O)oc2c1 (stereo not given)
-1.1%	-22%	0%	7	CCOC(=O)CC(=O)NC(C)(C)CCCCC(C)(C)NC(=O)CC(=O)OCC
4.0%	0%	-15%	5	COc1ccc(/C=N/c2nc3ccccc3n2CCN2CCCCC2)cc1OC
2.2%	29%	19%	-25	C(=N\Nc1ncnc2ccccc12)/c1ccccc1
1.5%	6%	1%	3	C=CCn1c(COc2ccccc2)nnc1SCC(=O)O
-0.1%	7%	.	.	CC(=O)Nc1ccc(S(=O)(=O)NCC(=O)OCC(=O)NNC(=O)c2ccccc2)cc1
-1.7%	0%	-15%	-3	O=C(NNC(=O)c1ccc(Cl)cc1Cl)c1cnccn1
-4.9%	7%	2%	1	C/C(=N\NC(=O)CSCc1ccc(Cl)cc1)c1ccc2c(c1)OCCO2
-1.1%	0%	-5%	-5	Cn1ccnc1C(O)c1cc(C(C)(C)C)c(O)c(C(C)(C)C)c1 (stereo not given)
5.8%	-13%	.	.	O=C(COC(=O)C1CCN(c2ccc(C(F)(F)F)cn2)CC1)c1ccc(Cl)cc1
-3.3%	-3%	-49%	2	Cc1nn(C(=O)c2ccoc2C)c(N)c1-c1ccccc1
-2.3%	-10%	2%	5	CC(=O)Nc1ccc([N+](=O)[O-])cn1
1.5%	-3%	-3%	-11	Cc1cc(NC(=O)c2cc([N+](=O)[O-])cc([N+](=O)[O-])c2)n(-c2ccccc2)n1
0.9%	-16%	1%	-23	O=C(O)CNC(=O)c1cccc(C(F)(F)F)c1
2.7%	0%	-3%	7	COc1ccc(C(=O)NCC(c2cccnc2)N2CCN(c3ccccc3)CC2)cc1OC (stereo not given)
1.1%	-10%	-2%	7	CCCC1Cc2[nH]c(=O)c(C#N)cc2CO1 (stereo not given)
-1.6%	0%	-3%	0	CC(C)N1CCC(N2CCN(C/C=C/c3ccccc3)CC2CCO)CC1 (stereo not given)
-0.9%	0%	23%	-2	CCOC(=O)N1CCN(C(=O)c2ccccc2N(Cc2ccccc2)S(=O)(=O)c2ccc(OC)cc2)CC1
-2.2%	8%	-4%	.	COc1ccc(CCNC(=O)c2c(C)nn(-c3ccccc3)c2Cl)cc1
1.3%	7%	15%	16	O=C(CCN1CCN(c2ccccc2)CC1)N/N=C/c1ccccc1O
?	?	-4%&-2%	.	C[C@]12CCC(=O)C[C@@H]1CC[C@@H]1[C@@H]2CC[C@]2(C)[C@@H](C(=O)COC(=O)CCC(=O)O)CC[C@@H]12
-0.1%	-11%	-2%	-6	Oc1ccc(Cl)cc1C=Nc1ccc(Br)cc1
0.4%	-23%	.	.	O=c1ccn([C@@H]2O[C@H](CNS(=O)(=O)C3CC3)[C@@H](O)[C@H]2O)c(=O)[nH]1

4 of the compounds above, as labelled records:
C=CCn1c(COc2ccccc2)nnc1SCC(=O)O
- Rango complex inh: 1.5%
- Rango dissoc inh: 6%
- miR-21 reporter: 1%
- GLA inh pH 4.5: 3

Cc1nn(C(=O)c2ccoc2C)c(N)c1-c1ccccc1
- Rango complex inh: -3.3%
- Rango dissoc inh: -3%
- miR-21 reporter: -49%
- GLA inh pH 4.5: 2

CC(=O)Nc1ccc([N+](=O)[O-])cn1
- Rango complex inh: -2.3%
- Rango dissoc inh: -10%
- miR-21 reporter: 2%
- GLA inh pH 4.5: 5

C[C@]12CCC(=O)C[C@@H]1CC[C@@H]1[C@@H]2CC[C@]2(C)[C@@H](C(=O)COC(=O)CCC(=O)O)CC[C@@H]12
- Rango complex inh: ?
- Rango dissoc inh: ?
- miR-21 reporter: -4%&-2%
- GLA inh pH 4.5: .

The list goes on.
Rango complex inh	Rango dissoc inh	miR-21 reporter	GLA inh pH 4.5	Molecule
?	0%	-7%	.	O=C(CCCN1C(=O)C(c2ccccc2)Oc2cccnc21)Nc1ccccc1Cl (stereo not given)
2.3%	14%	-21%	.	O=C(NCC(=O)N1CCN(c2ccccc2)CC1)c1ccco1
-0.6%	-6%	9%	-3	COc1ccc(S(=O)(=O)c2cnc3ccccc3n2)cc1
3.4%	?	0%	11	CCSc1nnc(CCNC(=O)OC(C)(C)C)o1
-0.9%	-7%	-38%	-1	Cc1cc(-c2n[nH]c(=S)o2)c(C)n1-c1ccccc1
-0.1%	39%	.	.	CCN(CC)C(=O)CN1C(=O)C2(OCC(C)(C)CO2)c2ccccc21
-2.6%	-3%	-7%	-11	CC1=C(C(N)=O)C(c2ccc(C)o2)C(C(N)=O)=C(C)N1
-3.1%	-1%	18%	-2&6	COc1ccc(COc2cc(-c3cccc(OC)c3)nc3ccc(NC(=O)c4ccc(N(C)C)cc4)cc23)cc1
-2.4%	3%	?	-2	CCN(c1ccccc1)S(=O)(=O)c1cc(C(=O)Nc2ccc(F)c(F)c2)ccc1F
0.7%	0%	.	.	O=C(O)C[C@H]1c2cc(F)ccc2S(=O)(=O)N1C1CCCC1
-1.5%	0%	-5%	.	COc1cc(/C=C2\C(=O)ON=C2c2ccccc2)cc(Br)c1O
-1.4%	0%	-1%	5	Cc1ccc(C)c(NC(=O)COC(=O)CNC(=O)c2ccccc2Cl)c1
1.0%	14%	1%	.	Cc1ccc(C(C)NC(=O)Cc2cccs2)cc1C (stereo not given)
1.8%	10%	0%	-1	CCOC(=O)CSc1ncnc2c1sc1nc(N3CCOCC3)c3c(c12)CCCC3
-2.7%	-7%	7%	3	Cn1nnnc1SCCNCc1ccccc1OCc1ccc(Cl)cc1
-4.8%	-8%	-36%	2	COCCCNC(=O)/C=C/c1ccc(Cl)cc1
-0.7%	16%	-2%	.	COC(=O)c1ccccc1NC(=O)CSc1n[nH]c(-c2ccncc2)n1
0.8%	22%	-3%	-8	CCOCCCNC(=O)Cc1ccc(OC)c(OC)c1
-0.1%	-2%	.	.	COc1ccc(C(=O)NCCS(=O)(=O)NCc2ccccc2)cc1
0.4%	0%	0%	0	CC1(C)Cc2ccccc2-c2nnc(-c3ccc(O)cc3)n21
2.1%	-11%	-7%	-3	COC(=O)c1ccc(COc2ccc(-c3nn[nH]n3)cc2)cc1
0.1%	-1%	-8%	2	O=C1N=c2ccccc2=C1c1c(O)n(-c2cccc(F)c2)[nH]c1=O
0.0%	4%	17%	-4	Cc1nn(Cc2ccc(C(=O)N3c4ccc(F)cc4CCC3C)o2)c(C)c1Br (stereo not given)
0.7%	1%	-35%	-1	CC(=O)c1cccc(NC(=O)c2cc(Cl)sc2Cl)c1
0.2%	4%	7%	-1	O=C1N(CC(=O)N2CCc3ccccc32)CCN1Cc1ccc(Cl)cc1
3.6%	3%	.	.	CC(C)Cn1c(SCC(=O)NCCCN2CCCC2=O)nc2ccccc21
?	?	0%	.	Cc1ccc(OCCC(=O)OCC(=O)Nc2cc(C)cc(C)c2)cc1
3.9%	-3%	-6%	7	CC(=O)N1CCN(C(=O)CCc2nc3sc4c(c3c(=O)[nH]2)CCCC4)CC1
-1.0%	-3%	0%	.	CCn1cc(C(=O)N[C@@H](C)C(=O)OC)c(=O)c2cc3c(cc21)OCO3
?	-20%	-54%	0	O=C(/C=C/c1ccco1)Nc1cccnc1Cl
2.8%	4%	-2%	2	Cc1c(Cl)cccc1NC(=O)CSCC(N)=O
2.7%	1%	14%	-6	COc1cc2c(cc1NC(=O)CSc1nnc(Cc3cccs3)n1Cc1ccco1)oc1ccccc12
-2.1%	-20%	.	.	COC(=O)c1c(C)[nH]c(C(=O)OCc2csc(CC(=O)Nc3ccccc3C)n2)c1C
1.0%	-7%	4%	-12	CCCCN(CCCC)S(=O)(=O)c1ccc(NC(=O)CN2CCOCC2)cc1
1.8%	8%	.	.	C[C@H](CO)N1C[C@H](C)[C@@H](CN(C)S(=O)(=O)c2ccc(F)cc2)Oc2ccc(NC(=O)Nc3ccc4c(c3)OCO4)cc2C1=O
-0.2%	42%	-34%	1	O=C(NC1CCCCCCC1)c1ccc2c(c1)OCO2
3.1%	2%	-11%	-11	N#CCCn1c(SCC(=O)Nc2ccc(N3CCOCC3)cc2)nc2ccccc21
-0.5%	8%	-2%	1	CSc1nnc(C)c(=O)n1COC(=O)COc1ccc(Cl)cc1Cl
?	-29%	-8%	.	Cc1c(C(=O)c2ccc(F)cc2F)c2ccccn2c1CCC#N
0.4%	-3%	1%	.	N#Cc1ccc(S(=O)(=O)NCC(=O)OCC(=O)NCCc2ccccc2)cc1
-1.0%	1%	.	.	C=CCC[C@@H](Cc1ccc(F)cc1)C(=O)OC[C@@H](NC(=O)[C@@H](CC=C)CC(=O)N(CCO)Cc1ccccc1)c1ccccc1
0.0%	-3%	.	.	CCOc1ccc(CN(C)C(=O)c2ccc3c(c2)NC(=O)C(C)S3)cc1OC (stereo not given)
4.0%	17%	-14%	-1	Cn1c(=O)c2c(nc(SCCNS(=O)(=O)c3ccccc3)n2C)n(C)c1=O
-3.8%	-4%	-1%	4	Cc1cc(N2C(=O)c3ccc(C(=O)NCc4ccccc4)cc3C2=O)no1
4.6%	18%	0%	.	Cc1ccnc(NC(=O)CCC(=O)N(CC(=O)NCc2ccc(F)cc2)CC2CCCO2)c1 (stereo not given)
0.6%	-1%	-2%	-5	CNC(=O)CCSSCCC(=O)NC
3.7%	-5%	-12%	2	COc1ccc(N(C)C(=O)c2ccc3snnc3c2)cc1
0.1%	-8%	3%	-2	CN(c1ccccc1)S(=O)(=O)c1cccc(C(=O)Nc2ccc3c(c2)CCC3)c1
-4.5%	-6%	3%	4	CC(=O)N(c1cccc(C(F)(F)F)c1)c1nc(/C=C/C(=O)O)cs1
-1.4%	-2%	-1%	-2	C/C(=N\OC(=O)c1c(-c2c(F)cccc2Cl)noc1C)c1nccs1
-1.0%	-7%	-26%	-13	CSC1=NCCN1C(=O)c1ccc2ccccc2c1
-0.5%	-11%	-26%	1	COc1ccc(/C=N/NC(=O)CNC(=O)c2cccs2)cc1
10%	15%	-2%	5	NS(=O)(=O)c1ccc(CCNC(=S)Nc2ccccc2)cc1
?	?	-20%	.	Cn1c2ccccc2c(=O)c2cc(C#Cc3ccsc3)ccc21
3.4%	-1%	0%	.	O=C(O)c1cccc(S(=O)(=O)N2CCC(n3nnc4cc(C(F)(F)F)ccc43)CC2)c1
-4.1%	-19%	-5%	-11	CCOC(=O)C1=C(C)NC2=C(C(=O)CC(C)(C)C2)C1c1ccc(N(C)C)cc1 (stereo not given)
1.6%	-13%	2%	3	Cc1ccc(CN2CC34C=CC(O3)C(C(=O)NCc3ccc5c(c3)OCO5)C4C2=O)cc1 (stereo not given)
0.2%	-15%	0%	-13	Cc1nn(CCC#N)c2nc(-c3ccccc3)cc(C(F)(F)F)c12
3.8%	0%	-3%	.	CCn1cc(C(=O)N[C@H](C(=O)NCCCOC)C(C)C)c(=O)c2cc3c(cc21)OCO3
-2.7%	-3%	20%	-4	CCOc1ccc(CCNC(=O)c2[nH]c(C)c(C(C)=O)c2CC)cc1OCC

Screens as filed in PubChem.
